From PubChem
D2 PAM: potentiates the human D2 dopamine receptor allosterically; P14416; DiscoveRx D2 beta-arrestin cells, luminescence, 90 min; 100% = 57 uM dopamine signal; potentiation, % (no concentration beside the values); 360,000 compounds, 0.23% hits; active = potentiation of 50% or more; inconclusive = 30% to 50%; inactive = 30% or less;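 also: compound concentration not given in the record; tested on top of an EC20 dose of dopamine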
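PathHunter beta-arrestin assay in DiscoveRx D2 cells. Compounds were added with an EC20 of dopamine (50 nM final) for 90 min at 37 deg C. Luminescence was read 1 h after detection reagent, with 57 uM dopamine as the EC100 control.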
Six1-Eya2 blk: inhibitors of human Six1/Eya2 interaction. activity change, % (no concentration beside the values). 360,000 compounds, 0.56% hits. AlphaScreen GST-Six1/His-Eya2 binding, biochemical; hits give low values; control for the full effect not named in the record. AID 651725; in the data active = activity change below about -65%; inconclusive = about -30% to -65%; inactive = above about -30%; also: % is scaled to controls: 0 for no effect and ±100 for the full control effect
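AlphaScreen with GST-Six1 and His-Eya2 (5X mix: 250 nM and 500 nM), glutathione donor and nickel acceptor beads; buffer 50 mM Tris pH 8.0, 300 mM NaCl, 1 mM TCEP; 1 h at 37 C in the dark.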
CtBP-E1A inh: CtBP/E1A binding inhibition | AlphaScreen GST-E1A/His-CtBP binding, 1536-well; hits give low values; control for the full effect not named in the record | activity change, % (no concentration beside the values) | 340,000 compounds, 0.49% hits | AID 651724; in the data active means activity change below about -65%; inconclusive means about -30% to -65%; inactive means above about -30%; also: % is scaled to controls: 0 for no effect and ±100 for the full control effect
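GST-E1A and His-tagged CtBP (125 nM each as 5X stock) were preincubated with pin-transferred compound for 2 h at 37 °C in the dark, then glutathione donor and nickel acceptor beads were added for 1 h before AlphaScreen reading.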
Sfp inh: Sfp phosphopantetheinyl transferase inhibition. AID 1490. Potency, µM, without a hit: max response, negative = inhibition, most hits filed as inhibitors. 310,000 compounds, 3.5% hits. Q9F4F7. Biochemical Sfp PPTase activity, qHTS; active = well fitted inhibition curve with a large enough effect; inconclusive = small, poorly fitted or top-dose-only effect, or another doubt; inactive = no such curve, though single readings can be large or run the other way;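 also: the enzyme is Sfp with the accession as filed and its product quenches rhodamine fluorescence; potency is read from the fitted curve at half-maximal effect; 0% = enzyme reaction without inhibitor and -100% = no enzyme wells; top concentration of the series not given in the record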
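Fluorescence-quenching assay: 15 nM Sfp-PPTase preincubated 15 min at room temperature with compound, then 5 uM rhodamine-CoA and 12.5 uM BHQ-2-labelled YbbR peptide added. Fluorescence (ex 525/em 598 nm) read at start and after 30 min; difference gives rate.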
PINK1 expr mod: modulators of PINK1 expression; Potency, µM (doses to about 76.6 µM), inactives show at the highest dose activation (PINK1 increase), hits mostly activators; 410,000 compounds, 0.2% hits; PINK1 immunofluorescence, high-content cytometry, 24 h; active = well fitted activation curve with a large enough effect; inconclusive = small, poorly fitted or top-dose-only effect; inactive = flat fitted curve, though single readings scatter; cell line not stated here;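 also: potency is read from the fitted curve at half-maximal effect; % of control where 0% means no effect; nearly all actives have a fitted effect of over 65% in size; a mitochondrial uncoupler was the plate control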
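Measures PINK1 amount and localization on or inside mitochondria by immunofluorescence. Stable cells get compounds at 5 concentrations for 24 hours before fixation and staining; CCCP controls included.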
TRPV1 PAM: potentiators of human vanilloid receptor 1 (TRPV1); TRPV1-expressing cells, Fluo-8 calcium influx, capsaicin EC20 potentiation; host cell line not named in the record; control for the full effect not named in the record; Q8NER1; AID 540277; 320,000 compounds, 0.02% hits; potentiation, % at 8.33 µM; active means potentiation above 80%; inconclusive means 30% to 80%; inactive means below 30%; also: 0% is about no effect
Target sequence (Q8NER1 whole entry, looked up): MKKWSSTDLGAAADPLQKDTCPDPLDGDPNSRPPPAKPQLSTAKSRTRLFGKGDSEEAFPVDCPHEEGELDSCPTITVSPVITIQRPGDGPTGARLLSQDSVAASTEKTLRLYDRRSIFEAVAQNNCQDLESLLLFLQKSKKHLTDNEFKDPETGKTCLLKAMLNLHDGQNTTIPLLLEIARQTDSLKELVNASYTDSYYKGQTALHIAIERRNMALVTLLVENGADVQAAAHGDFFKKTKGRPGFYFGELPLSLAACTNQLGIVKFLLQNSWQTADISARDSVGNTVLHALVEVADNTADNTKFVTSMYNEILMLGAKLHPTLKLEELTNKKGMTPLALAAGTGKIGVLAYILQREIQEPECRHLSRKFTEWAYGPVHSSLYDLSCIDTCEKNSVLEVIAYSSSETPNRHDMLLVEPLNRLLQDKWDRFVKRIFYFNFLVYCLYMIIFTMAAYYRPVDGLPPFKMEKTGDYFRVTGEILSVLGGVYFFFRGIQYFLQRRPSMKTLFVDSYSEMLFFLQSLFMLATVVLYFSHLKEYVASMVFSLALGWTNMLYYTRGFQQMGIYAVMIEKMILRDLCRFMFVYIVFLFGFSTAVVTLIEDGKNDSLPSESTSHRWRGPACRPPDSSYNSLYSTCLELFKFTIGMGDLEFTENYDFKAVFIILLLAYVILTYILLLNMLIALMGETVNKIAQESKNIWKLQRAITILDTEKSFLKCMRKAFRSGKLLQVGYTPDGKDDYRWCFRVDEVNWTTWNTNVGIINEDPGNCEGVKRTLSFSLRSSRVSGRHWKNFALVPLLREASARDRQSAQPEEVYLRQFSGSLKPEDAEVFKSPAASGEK
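Cells expressing TRPV1 were dye-loaded with Fluo-8 and read kinetically: 10 s baseline, 3 min after compound (agonist portion), then 2 min after EC20 capsaicin (allosteric enhancer portion). Calcium-bound dye fluorescence at 480/520 nm.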
D2 agonist: activates the human D2 dopamine receptor. P14416. DiscoveRx PathHunter D2 beta-arrestin, luminescence, 90 min; 100% = 57 uM dopamine signal. activation, % (concentration not given with the values). 360,000 compounds, 0.084% hits. AID 624465; in the data active = activation above about 40%; inconclusive = about 15% to 40%; inactive = below about 15%; also: the text of the record calls up to 30% inactive
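DiscoveRx PathHunter D2 beta-arrestin cells (2,100/well) attached overnight, then compound-stimulated 90 min at 37 C in HBSS/10 mM HEPES/0.1% Tween-20 buffer; beta-galactosidase complementation read by luminescence after 1 h at ambient temperature. Dopamine 57 uM final (EC100) as control.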
The depositor's hits bear a star; ? = inconclusive; · = not tested or not shown; & = joins results of further samples; [ ] = remark or other dose.

SMILES | D2 PAM | Six1-Eya2 blk | CtBP-E1A inh | Sfp inh | PINK1 expr mod | TRPV1 PAM | D2 agonist
COCCOC(=O)c1nccnc1C(=O)Nc1ccc(S(=O)(=O)N2CCOCC2)cc1 | 1.9 | -0.6 | 7.7 | 6.4% | 2.2% | 24.5 | -0.6
Cc1ccc(-n2c(C)cc(/C=N/NC(=O)c3ccc(CN4CCOCC4)cc3)c2C)cc1 | -11.8 | -12.7 | -13.4 | -16.5% | 8.4%[38.3 µM] | -9.7 | -2.6
COc1ccc(-c2cn(-c3ccccc3)c3[n+]2CCS3)cc1 | -10.0&-10.0 | 1.7&-6.0 | 3.2&5.2 | 4.8%&28.3% | 1.3%&1.6% | -6.1&9.7 | -1.1&-1.6
N#C/C(=C/c1ccc(-c2ccc(S(N)(=O)=O)cc2)o1)c1nc2ccccc2s1 | 24.6 | -15.6 | -27.2 | ? | 8.6% | -2.1 | 11.0
COCCCN(Cc1ccco1)C(=O)CSc1nc2ncccc2[nH]1 | -3.2 | -0.6 | · | 2.1% | 2.3% | -11.7 | 1.1
COCc1nc(-c2ccc(-c3ccc(OC)cc3)nc2OC)no1 | -2.5 | 6.4 | -6.3 | -2.8% | 0.1% | -22.5 | -1.7
Nc1ncc(S(=O)(=O)c2ccc([N+](=O)[O-])cc2)s1 | 7.3 | 8.0 | -1.4 | · | -0.8% | · | ?
O=S(=O)(Nc1nnc(-c2ccccc2)s1)c1ccc(Cl)cc1 | -22.0 | ? | -9.3 | 20.0% | -0.9% | 2.7 | -1.7
CSc1nc(-c2ccccc2)nn1C(=O)c1ccc(C)cc1 | -24.2 | 4.7 | 8.5 | ? | 1.2% | ? | -3.8
CCOC(=O)CCC(=O)NCc1ccc2[nH]c(C)cc2c1 | -7.7 | -0.9 | -21.0 | 14.7% | 1.3%[38.3 µM] | 3.8 | -1.6
O=C1C2CCCN2C(c2cccs2)N1c1ccc(F)cc1 (stereo not given) | -0.9 | 8.9 | 4.4 | -2.0% | 4.3% | 4.8 | -1.1
CC(NC(=O)COC(=O)C1CC2CCCC(C1)C2=O)c1ccccc1 (stereo not given) | 2.0 | 13.0 | · | · | 0.4% | -1.6 | -2.8
CC(=O)c1sc(NC(=O)C2CC(=O)N(Cc3ccccc3)C2)nc1-c1ccccc1 (stereo not given) | -8.4 | -5.4 | -7.8 | · | 7.0% | 1.8 | -5.2
COc1ccc(Cn2c(CCC(=O)Nc3ccccc3)nc3cccnc32)cc1 | -19.4 | 5.5 | 0.6 | 7.7% | 3.1% | 3.2 | -1.2
CCOc1ccc(-n2c(Cc3cc(=O)[nH]c(=O)[nH]3)nnc2SC(C)C)cc1 | -7.8 | 3.4 | -2.3 | 5.2% | -1.5% | -12.1 | -5.6
O=C(CN(Cc1ccccc1F)C(=O)c1csnn1)NCc1ccc2c(c1)OCO2 | -10.5 | 0.5 | -1.5 | 10.3% | 2.4% | 11.1 | -8.0
CCn1cc(C(=O)O)c(=O)c2cc(F)c(N3CCN(C(=S)NC(=O)c4cc(OC)cc(OC)c4)CC3)cc21 | -8.1 | -5.0 | · | 4.2% | ? | -8.7 | -1.1
COc1ccc(C(=O)Nn2c(C)nc3ccccc3c2=O)cc1Br | -9.7 | -5.7 | · | 3.5% | 1.2% | -17.8 | 1.6
CN(CCCN1CCCCC1)C(=O)CCc1nnc(C2CCCCC2)o1 | -7.7 | 9.7 | 15.9 | 14.7% | 1.6% | -8.2 | -18.9
COc1ccc(CCN(Cc2cc3ccc(C)cc3[nH]c2=O)C(C)=O)cc1OC | -5.3 | -8.0 | -0.3 | 15.0% | -0.4% | 3.0 | -2.5
CC(C)c1ccc(NC(=O)CCNS(=O)(=O)c2cccc3nonc23)cc1 | -4.3 | 1.7 | 9.3 | 15.3% | 1.1% | -11.7 | -0.8
O=C1/C(=C\c2cccnc2)Sc2ccccc21 | -2.4 | -0.7 | 0.4 | 5.0% | 2.0% | -1.8 | 3.9
Cc1ccc(OCC(=O)NC(=S)Nc2ccc(Br)cn2)cc1 | -5.3 | 9.2 | · | 1.2% | 0.3% | 8.7 | -3.8
COc1ccc(C(C)NC(=O)Cc2ccc(Br)cc2)cc1 (stereo not given) | -18.9 | -6.1 | -18.2 | 17.0% | 5.1% | -29.6 | -5.3
Cc1cc(Cl)c2oc(C(=O)N(C)C(C)c3ccccn3)c(C)c2c1 (stereo not given) | -19.5 | -1.5 | -5.4 | -1.9% | 2.1% | 24.9 | -2.0
CC(=O)Nc1ccc(NC(=S)Nc2ccccc2)cc1 | 0.0 | 10.6 | -6.7 | -1.6% | -0.7% | 7.8 | -4.7
Cc1nnc(SCC(=O)NCc2ccc3c(c2)OCO3)s1 | -4.0 | 0.8 | 1.3 | 19.8% | 1.5%[38.3 µM] | -15.9 | 0.4
Cn1c2ccccc2c2nnc(SCC(=O)Nc3ccccc3F)nc21 | -1.0 | -6.7 | · | 8.8% | 2.7% | 29.9 | -1.8
COc1cc(/C=C2/C(=O)N(C)C(=S)N2C)ccc1OCc1cccc(F)c1 | -2.3 | 3.4 | 11.1 | -0.1% | ? | -1.6 | 1.3
CC(CN(C)Cc1ccccc1)OC(=O)C1COc2ccccc2O1 (stereo not given) | -1.9 | 7.3 | 6.5 | -5.6% | -0.3% | · | -1.4
O=C(CSc1n[nH]c(-c2ccccc2Br)n1)NC(=O)NCc1ccco1 | -0.7 | -5.8 | -14.9 | 10.0% | -2.1% | 6.5 | -2.8
Cc1c(Cc2ccccc2)c(=O)oc2c(C)c(OCc3nn[nH]n3)ccc12 | -1.7 | ? | ? | 8.9% | 2.0% | 15.9 | -1.3
Cc1cccc(C(=O)Nc2ccc(NC(=O)CN3CCOCC3)cc2)c1 | -0.8 | -3.8 | -2.0 | 15.6% | 3.3% | 12.9 | 0.3
CC(Nc1nc(-c2ccc(F)cc2)cs1)c1nc2cc(C(F)(F)F)ccc2n1CCCO (stereo not given) | -2.6 | -5.2 | -1.1 | · | 23.0% | · | -4.5
CC(C)[C@H](N)C(=O)N1CCC(C(=O)N[C@@H](Cc2ccccc2)C(=O)NCc2ccc(F)cc2)CC1 | -6.8 | 7.3 | · | 15.9% | 0.9% | -8.2 | -1.5
CS(=O)(=O)c1ccccc1-c1nnc(NC(=O)c2ccc3ncsc3c2)o1 | -2.0 | -18.5 | -23.3 | · | 1.6% | 16.7 | -3.2
CCCCOc1ccc(C2C(=O)N(C3CCCCC3)CC(=O)N2CC2CCCO2)cc1 (stereo not given) | 3.2 | 3.2 | 9.4 | -2.4% | 3.7%[38.3 µM] | -10.4 | -0.5
COc1cc(C(=O)Nc2cnc(NC(=O)C(C)C)cc2C)cc(OC)c1OC | -5.1 | -2.3 | -1.9 | -0.3% | -0.4% | -15.8 | -2.4
COc1ccc(CCC(=O)Nc2nc3ccccc3[nH]2)cc1 | -25.2 | -5.9 | -0.7 | ? | ? | 14.7 | 0.5
CCCc1[nH]nc2c1C(c1ccc(OC)cc1OC)C(C#N)=C(N)O2 (stereo not given) | 9.3 | 9.9 | 0.4 | 1.1% | -1.7% | 8.7 | -0.3
CCOc1ccc(OCc2cccc(C(=O)N3CCCCCC3)c2)cc1 | 0.6 | -1.0 | -1.9 | 5.4% | 1.0% | -0.9 | -5.7
CCOC(=O)C1CCCN(C(=S)NC2CCCCC2)C1 (stereo not given) | -1.9 | 10.3 | 15.4 | -1.6% | 0.4% | -1.1 | -1.2
Cc1ccc(CNCC(=O)Nc2cccc(S(=O)(=O)NC3=NCCCCC3)c2)cc1 | 16.6 | -4.3 | · | -13.0% | -1.6% | -4.4 | 5.2
CC(=O)c1ccc(N2CCN(C(=O)C(=O)c3cn(CC(=O)N4CCCCCC4)c4ccccc34)CC2)cc1 | -7.3 | 10.3 | -5.8 | -9.6% | 3.2% | -5.1 | -4.0
Cc1ccc(/C=c2/sc3n(c2=O)CCCN=3)o1 | 0.6 | -1.6 | -0.8 | 20µM* | -0.3% | -3.5 | -4.6
O=C(NNC(=O)c1ccc(Cn2cccn2)o1)NC12CC3CC(CC(C3)C1)C2 | -1.6 | 2.1 | 10.4 | 8.0% | 0.5% | 29.5 | -4.5
CC(C)CC1=NN(C(=O)c2cccnc2)C(O)(C(F)(F)F)C1 (stereo not given) | -12.5 | -2.1 | 2.9 | 5.3% | -1.5% | 0.7 | -0.6
O=C(COC(=O)CNC(=O)c1ccccc1)Nc1ccc2c(c1)OCO2 | 0.4 | 2.0 | 0.0 | -6.7% | 1.8% | 5.8 | 13.5
